# Ecoli rRNA inh: reduced GFP signal of wild-type E. coli, primary screen, bacterial rRNA inhibitor project, GFP/RFP fluorescence, OD600, single point. E. coli WT GFP vs humanized-ribosome RFP mutants, 24 h; active compounds read low; DMSO median 0, no signal -100. GFP signal change (wild-type ribosome), % (concentration not given with the values). 350,000 tested, 1.6% active;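 active means significant combined selectivity score with lowered wild-type GFP, culture density cut under 30%, mutant RFP and density less affected; inactive means any of these conditions unmet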; further: one replicate is shown; some compounds called inactive have numbers as strong as hits
# Calb FLC: C. albicans growth inhibition with fluconazole, primary screen, CaCi-2 strain, Alamar Blue fluorescence | C. albicans CaCi-2 (fluconazole-resistant clinical isolate) + fluconazole, 48 h | growth inhibition, % (no concentration beside the values) | 300,000 tested, 0.57% active;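 active means most replicates above 75%; inconclusive means exactly half above 75%; inactive means most below 75%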;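 further: all wells also contain fluconazole at 8 µg/ml as a sub-toxic cotreatment; 0% = median of DMSO wells and 100% = median of geldanamycin control wells; wells of about 8 µL received 7.5 nL stock; the first replicate is given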
# Bfl-1 A1 inh: caspase 3/7 activation in MEF A1-2A-BIM cells, primary screen, A1 inhibitor project, cell-based, luminescence, HTS; Caspase-Glo 3/7 luminescence, 3 h; percent of clofoctol response, vehicle zero; caspase activation, % (concentration not given with the values); 330,000 tested, 0.066% active; AID 2462, 2010;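 active means over half of replicate activation scores above 10%, or exactly half above 10 with the replicate mean above 10; inconclusive means replicate mean below 10 yet half the replicates above 10; inactive means over half of replicates below 10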;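 further: wells of about 30 µL received 50 nL stock; many hits fall short of the cut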
# LANA-H2B inh: blockers of LANA interaction with H2A/H2B – biochemical, FP readout, HTS, primary screen; Protein LANA1 (Human herpesvirus 8 type P (isolate GK18)), Q9QR71; cell-free LANA-H2A/H2B peptide, fluorescence polarization; inhibition, % (no concentration beside the values); 320,000 tested, 0.6% active; AID 2629, 2010; in the data active means inhibition mostly above about 10%, no sharp cut-off; inactive means mostly below about 6.7%;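 further: stock transfer was 7.5 nL into about 10 µL; 0% = median of vehicle wells and 100% = median of positive control wells; one replicate is shown; the record names a cut of 25% in any replicate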
# Target sequence (Q9QR71 whole entry, looked up): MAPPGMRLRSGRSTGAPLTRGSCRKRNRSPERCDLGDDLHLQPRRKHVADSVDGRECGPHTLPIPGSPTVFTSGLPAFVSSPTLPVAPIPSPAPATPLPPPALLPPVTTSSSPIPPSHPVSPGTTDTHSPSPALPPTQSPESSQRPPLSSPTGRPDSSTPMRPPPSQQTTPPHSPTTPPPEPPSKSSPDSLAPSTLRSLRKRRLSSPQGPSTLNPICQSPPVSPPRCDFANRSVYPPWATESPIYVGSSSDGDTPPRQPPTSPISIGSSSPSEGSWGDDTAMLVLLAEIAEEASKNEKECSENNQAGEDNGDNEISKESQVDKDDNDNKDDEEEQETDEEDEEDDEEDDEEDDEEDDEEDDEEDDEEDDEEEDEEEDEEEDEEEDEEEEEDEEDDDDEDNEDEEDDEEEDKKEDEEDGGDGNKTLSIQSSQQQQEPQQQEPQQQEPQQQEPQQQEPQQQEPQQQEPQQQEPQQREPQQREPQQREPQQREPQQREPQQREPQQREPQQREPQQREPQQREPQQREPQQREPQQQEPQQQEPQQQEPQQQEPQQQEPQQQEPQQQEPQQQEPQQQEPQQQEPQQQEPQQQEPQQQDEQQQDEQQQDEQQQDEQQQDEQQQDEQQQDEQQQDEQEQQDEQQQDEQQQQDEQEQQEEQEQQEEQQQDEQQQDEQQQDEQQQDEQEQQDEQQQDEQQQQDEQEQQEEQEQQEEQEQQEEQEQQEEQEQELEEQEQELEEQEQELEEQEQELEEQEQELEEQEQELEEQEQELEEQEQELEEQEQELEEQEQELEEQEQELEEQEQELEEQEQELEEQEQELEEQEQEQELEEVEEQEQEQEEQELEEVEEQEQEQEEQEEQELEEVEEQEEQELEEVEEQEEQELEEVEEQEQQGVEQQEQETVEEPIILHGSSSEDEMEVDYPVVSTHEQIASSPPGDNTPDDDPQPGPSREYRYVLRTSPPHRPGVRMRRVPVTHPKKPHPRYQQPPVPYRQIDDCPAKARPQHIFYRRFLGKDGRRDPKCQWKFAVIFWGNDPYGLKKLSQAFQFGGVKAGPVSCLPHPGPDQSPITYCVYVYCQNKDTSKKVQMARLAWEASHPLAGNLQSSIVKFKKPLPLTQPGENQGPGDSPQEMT
# Beta apoptosis: inhibitors of cytokine-induced beta cell apoptosis, primary screen, luminescence; INS-1E cytokine-induced death, ATP luminescence, 48 h; percent of positive-control rescue, neutral wells zero; protection from apoptosis, % (concentration not given with the values); 300,000 tested, 0.8% active; AID 435005, 2010;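 active means all replicates at 75% or more, or half of them and the mean; inconclusive means half reach 75% but not the mean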;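 further: 0% = cytokine-treated negative control wells and 100% = positive control rescue; higher means more ATP so stronger rescue from cytokine killing; wells of about 40 µL received 100 nL stock; the first replicate is given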
# T cruzi repl: inhibitors of intracellular T. cruzi growth, primary screen, luminescence, NIH3T3 host cells. AID 1885, 2009. inhibition, % (no concentration beside the values). T. cruzi beta-gal in NIH3T3, 90 h. 300,000 tested, 1.4% active;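 active means mean inhibition across valid replicates above about 55%, limit read from the data; inconclusive means mean below that limit but half or more replicates reach it; inactive means mean below it, under half of replicates reach it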;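 further: signal also drops with host cell toxicity which is not excluded here; 0% = plate median of DMSO wells and 100% = zero luminescence signal; higher percent means less beta-gal luminescence so fewer parasites; stock transfer was 50 nL into about 50 µL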
# B2AR ag: beta2AR agonists driving receptor internalization, primary screen, cell-based, FAP fluorogen, flow cytometry; Beta-2 adrenergic receptor (Homo sapiens), P07550; Am2.2-beta2AR cells; reference of the scale not given here; response, % (test concentration not listed); 340,000 tested, 0.43% active;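 active means response above a set limit, near 3 SD of response in nonfluorescent compounds, cut at about 42% in these data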;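 further: stock transfer was 100 nL into about 11 µL; a reference agonist was the positive control; negative values mostly stem from fluorescent compounds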
# ALR inh: inhibitors of human ALR sulfhydryl oxidase, primary screen, biochemical, H2O2 detection, HRP-luminol luminescence, single point. inhibition, % (no concentration beside the values). FAD-linked sulfhydryl oxidase ALR (Homo sapiens), P55789. 290,000 tested, 3.8% active. purified ALR, DTT oxidation. AID 485317, 2010;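 active means mean and each replicate at 75% or more; inconclusive means only one of the two met; inactive means neither met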;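 further: stock transfer was 7.5 nL into about 7.5 µL; 0% = neutral wells and 100% = wells with inactivated enzyme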
# Ecoli rRNA inh OD600: also measured in Ecoli rRNA inh; calls as there; OD600 change, %; measured here: OD600 growth;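 optical density of the mix in the first replicate; 0 = DMSO median and -100 = no signal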
# Ecoli rRNA inh RFP: second read-out of Ecoli rRNA inh, no call of its own (marks repeat the call); RFP signal change, %; measured here: RFP humanized mutant strains;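 first replicate; 0 = DMSO median and -100 = no signal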
# * marks the source's active call; other numbers are inactive results; ? = inconclusive; nt = no result given; & = joins results of further samples.
SMILES,Ecoli rRNA inh,Ecoli rRNA inh OD600,Ecoli rRNA inh RFP,Calb FLC,Bfl-1 A1 inh,LANA-H2B inh,Beta apoptosis,T cruzi repl,B2AR ag,ALR inh
C[C@H](CO)N1C[C@H](C)[C@@H](CN(C)S(C)(=O)=O)Oc2ccc(NC(=O)Nc3ccccc3)cc2C1=O,0&6,9&9,0.1&2.0,nt,0.1,-1.2,-16,nt,-9,2
Cc1ccc(NC(=O)CC2OC(=O)c3ccccc32)cc1S(=O)(=O)N1CCOCC1 (configuration not stated),nt,nt,nt,nt,0.5,-4.1,-2,nt,2,-1
Cc1csc(SCc2nc3scc(-c4ccccc4)c3c(=O)[nH]2)n1,-24*,3.8*,3.8*,34,0.0,0.0,0,-6,1,-5
CCCCn1cnc2c(c(-c3ccccc3)c(-c3ccccc3)n2Cc2ccco2)c1=N,nt,nt,nt,-5,0.4,-3.2,114*,51,-1,-10
O=C(CNC(=O)c1ccc(Cl)cc1Cl)OCN1C(=O)c2ccccc2C1=O,9,4,2.9,nt,0.4,-2.2,-8,-8,12,-8
COc1ccccc1OCCn1ccnc1,12,11,6.4,8,-0.8,-1.8,-3,-9,5,-9
O=C(CCNC(=O)c1ccccc1Cl)Nc1nc(-c2ccccc2Cl)cs1,-46,-70,-6.3,2,-0.4,0.5,21,-10,4,-10
Cc1ccc(-c2nc(CS(=O)CC(=O)NCc3ccc4c(c3)OCO4)c(C)o2)cc1 (configuration not stated),nt,nt,nt,-2,-0.9,2.3,9,2,-4,99*
O=[N+]([O-])c1cc(/C=N/n2c(-c3cccnc3)n[nH]c2=S)ccc1Cl,nt,nt,nt,-1,0.3,2.6,-2,-1,-24,nt
CC1(C)Cc2c(sc(NC(=O)COc3ccc(Cl)cc3)c2C(N)=O)C(C)(C)N1,13,9,2.0,49,-0.1,-1.1,-3,16,7,-3
COc1ccc(-c2nc(N3CCN(C)CC3)sc2-c2ccc(OC)cc2)cc1,-47,-79,-17,-6,0.1,-1.8,7,41,-3,55
COc1ccc(/C=C2/CCCC(C(=O)C(F)(F)F)=C2O)cc1OC,65,7,58,5,-1.1,-12,4,-5,5,-10
CC1=C(C#N)C(NC(=O)C2CCCCC2)(C(F)(F)F)C(=O)N1 (configuration not stated),nt,nt,nt,-15,0.5,-2.3,-1,-12,2,-2
CCn1c(=O)cc(SCC(=O)Nc2cc(OC)c(OC)c(OC)c2)c2ccccc21,nt,nt,nt,3,0.2,-3.7,-4,7,-5,nt
CCc1c(C)c(C#N)c2nc3ccccc3n2c1NCc1ccco1,nt,nt,nt,6,1.2,-2.0,4,-1,-15,5
Nc1n[nH]c(C2CCCCC2)n1,13,20,-2.0,-6,0.6,1.1,3,-6,-3,10
O=C(CSc1nnc(-c2cccs2)n1-c1ccccc1)N1CCCc2ccccc21,nt,nt,nt,12,nt,-0.1,1,17,-8,-5
CC(=O)NCCc1ccc(C(=O)COC(=O)c2cccn2C)cc1,-8,-21,-3.4,nt,-7.1,1.0,-2,nt,1,-2
Cc1ccc(C(=O)O)cc1NC(=S)NC(=O)c1ccc(-c2ccccc2)cc1,-9,-2,-6.3,40,-1.7,-5.0,nt,1,-1,98*
COc1ccc(C(=O)Nc2ccc(NC(=O)c3cccs3)c(OC)c2)cc1Cl,5,-12,-3.7,-5,1.0,5.0,-4,nt,6,1
NC(=O)c1cnn(C2CCS(=O)(=O)C2)c1 (configuration not stated),18,14,4.2,7,-0.2,-3.2,-17,-25,7,1
Cc1cc(C)cc(NC(=O)CNC(c2ccccc2)c2ccccc2)c1,0,-23,3.3,1,-0.6,5.0,-1,13,-1,2
CSc1cccc(NS(=O)(=O)c2ccc(-c3coc(C)n3)cc2)c1,6,1,8.9,22,-0.9,0.5,-3,12,3,-2
COc1ccc(NC(C)=O)cc1S(=O)(=O)N1CCn2cccc2C1C (configuration not stated),15,13,0.0,nt,1.5,-2.0,-4,nt,6,9
COC(=O)Cc1[nH]nc2c1C(C1C=CCCC1)C(C#N)=C(N)O2 (configuration not stated),nt,nt,nt,1,0.1,5.9,-4,-15,6,14
C=CCNC(=S)Nc1cccc(N)c1,11,6,-1.6,-5,-0.2,-2.3,-5,-16,23,28
COC(=O)CCN(C(=O)c1cc(OC)c(OC)c(OC)c1)c1ccccn1,2,0,6.3,11,-1.4,-6.1,nt,-24,5,-3
O=c1[nH]ncn1-c1ccc(Br)cc1,8,14,1.9,10,0.6,1.7,-3,-5,-6,5
CC(C)c1onc(C(=O)NCc2cccs2)c1[N+](=O)[O-],6,9,4.8,?,0.4,4.1,-1,-13,2,-5
CC(=O)c1ccc(OCc2cc(C(=O)N(C)Cc3ncc(C)[nH]3)no2)cc1,-3,-1,-0.9,-6,1.1,-4.3,0,-4,-1,-8
CC(=O)NC1=NN(C(C)=O)C(C)(CS(=O)(=O)c2ccc3ccccc3c2)S1 (configuration not stated),nt,nt,nt,2,-0.2,-2.2,1,-7,6,-4
Cc1ccc(NC(=O)CSc2nc3ccccc3nc2N2CCCC2)cc1,1,-3,-3.2,-12,0.0,-2.5,4,-4,-4,-16
COc1cccc(NC(=O)CN(C)C(=O)c2ccc(-c3ccccc3Cl)o2)c1,-37,-44,-9.7,0,0.1,-12,-11,1,6,2
CCNC(=O)C(C)Sc1ccc(Cl)cc1 (configuration not stated),nt,nt,nt,0,0.6,12,-4,0,-3,-17
N=C1/C(=C\c2ccc(OC(=O)c3ccccc3)cc2)C(=O)N=C2SC(N3CCOCC3)=NN12,-1,-3,1.5,-3,-4.9,4.4,-10,-7,2,15
COc1ccc(NC(=O)c2cccc(N3C(=O)C4C5C=CC(C5)C4C3=O)c2)c(OC)c1 (configuration not stated),1,5,-1.7,17,1.2,-0.2,4,-11,0,-34
CCOC(=O)C1=C(C)NC(C)=C(C(=O)OCC)C1C(=O)OCC(=O)N1CC(C)OC(C)C1 (configuration not stated),14,-4,0.8,nt,-0.1,4.2,-3,nt,-3,-13
Cc1cccc(CCNC(=O)C2CCCN(S(=O)(=O)c3cccc4nsnc34)C2)c1 (configuration not stated),nt,nt,nt,1,0.8,3.0,-3,-2,-9,1
O=C(CCN1C(=O)S/C(=C\c2cccs2)C1=O)NC1=NCCS1,nt,nt,nt,15,-0.1,2.0,1,-3,9,-8
CCN(CC(=O)NCc1cccs1)C(=O)c1ccc(S(=O)(=O)Nc2cccc(C)c2C)cc1,-21,-28,-7.5,2,-0.8,-5.8,-2,8,4,-2
CCN1CCN(CCCNC(=O)c2csc3c2CCCCC3)CC1,nt,nt,nt,-9,-0.6,-3.6,-29,11,-11,-1
COc1ccc(NC(=O)CN(C)C(=O)CCSc2ccc(C)cc2)cc1,5,7,-2.6,7,1.1,18,-3,-16,3,1
COc1cc(CNCc2cccs2)ccc1OCC(N)=O,nt,nt,nt,-9,0.3,-0.7,4,-2,7,0
O=C1CN(C(=O)CN2C(=O)NC(c3ccccc3)(c3ccccc3)C2=O)c2ccccc2N1,-3,-7,-1.7,nt,-0.4,1.5,-5,nt,6,8
Cc1ccc(-c2nc(CNC(=O)c3ccco3)cs2)cc1,-23,-28,0.9,-11,-0.6,-3.9,1,-3,6,-1
CCOc1ccc(C2CC(c3c(O)c4ccccc4oc3=O)=NN2c2ccccc2)cc1OC (configuration not stated),4,0,4.0,1,0.0,-43,4,1,10,nt
COc1ccc(CNC(=O)C(C)OC(=O)c2cccc(N(C)C)c2)cc1 (configuration not stated),-7,-1,0.5,nt,-0.6,0.6,-6,nt,-4,8
COc1ccc(-c2csc(N)n2)cc1,nt,nt,nt,8,0.9,-2.0,-8,-11,-4,nt
CCOc1ccc(-c2nc(C#N)c(NCc3ccco3)o2)cc1,8,-8,-0.9,-2,0.1,4.5,-2,2,1,-16
O=C(NCCCn1ccnc1)c1cc(-c2ccc(Cl)cc2)nc2ccccc12,nt,nt,nt,-4,-0.3,2.3,5,-1,1,-3
O=C(COC(=O)c1ccc(Cl)cc1O)NC(=O)C1CCCCC1,6,5,2.8,-2,0.0,3.8,1,-5,4,5
O=C(CCNS(=O)(=O)c1ccc(OC(F)(F)F)cc1)N1CCN(S(=O)(=O)c2cccc(F)c2)CC1,0,-4,-0.7,-1,0.0,-2.6,-5,5,2,-1
O=C(Nc1ccc(Cl)c(Cl)c1)C1CCCCC1,-36,-60,-8.7,nt,-0.8,-2.7,-5,nt,-16,nt
CCCCOc1ccc(C(=O)NCCOc2cccc(OC)c2)cc1,2,-39,-2.4,-19,-0.3,4.2,-1,12,-4,-1
CC(C)(C)NC(=O)C(c1ccc(F)cc1)N(Cc1ccco1)C(=O)CCC(=O)Nc1ccccn1 (configuration not stated),-4,-4,-0.5,-5,0.3,-0.3,-2,-3,-6,-2
O=C(NCCc1ccccc1)C1CCN(C(=O)c2ccc(F)cc2)CC1,3,14,7.0,22,0.8,3.5,nt,-6,-1,-8
COC(=O)CCC(=O)Nc1cccc2c(NC(=O)CCC(=O)OC)cccc12,nt,nt,nt,4,1.4,-4.4,-5,2,2,-35
CCS(=O)(=O)NCC(c1cccnc1)N1CCN(c2ccc(OC)cc2)CC1 (configuration not stated),7,19,2.6,9,0.5,-1.9,-6,58*,2,74
CCOC(=O)c1c(NC(=O)COc2ccc3ccc(=O)oc3c2)sc(C(=O)N(C)C)c1C,12,13,7.2,1,-0.2,-2.1,-2,-3,-4,-5
O=C1C2C3C=CC(C3)C2C(=O)N1c1cccc(-c2nc3ccccc3o2)c1 (configuration not stated),nt,nt,nt,22,-2.5,-4.0,-6,-6,-8,-11
Cc1nn(Cc2ccccc2Cl)c(C)c1NC(=O)CCCn1nc([N+](=O)[O-])c(Cl)c1C,nt,nt,nt,5,0.2,-3.7,-5,71*,1,1
Cc1ccc(C(=O)N/N=C/c2ccc(-c3cccc(Cl)c3)o2)cn1,-2,-12,6.3,12,-0.1,2.5,-2,3,11,nt

# Retrieved one by one from the entries so far:
SMILES,Ecoli rRNA inh,Ecoli rRNA inh OD600,Ecoli rRNA inh RFP,Calb FLC,Bfl-1 A1 inh,LANA-H2B inh,Beta apoptosis,T cruzi repl,B2AR ag,ALR inh
CCOc1ccc(-c2nc(C#N)c(NCc3ccco3)o2)cc1,8,-8,-0.9,-2,0.1,4.5,-2,2,1,-16
COc1ccc(CNC(=O)C(C)OC(=O)c2cccc(N(C)C)c2)cc1 (configuration not stated),-7,-1,0.5,nt,-0.6,0.6,-6,nt,-4,8

# Assay outcomes (PubChem)

# An excerpt, so the mix of outcomes need not match the whole.
